From PubChem BioAssay
GIV Gai3 FP = inhibitors of GIV peptide binding to Galpha-i3, primary screen, biochemical, fluorescence polarization, FITC-GIV GBA peptide, rat Galphai3. Guanine nucleotide-binding protein G(i) subunit alpha-3 (Rattus norvegicus), P08753. 90 min; stronger effect = lower value; scaled: aluminum fluoride 0%, vehicle 100%. percent of control (FP), % (no concentration beside the values). hit rate 0.42% among 210,000. AID 1224905, 2016;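 active means replicate mean at 85% of control or lower, very high polarization wells dropped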;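 further: wells of about 15 µL received 100 nL stock; the first replicate is given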
Target sequence (P08753 whole entry, looked up): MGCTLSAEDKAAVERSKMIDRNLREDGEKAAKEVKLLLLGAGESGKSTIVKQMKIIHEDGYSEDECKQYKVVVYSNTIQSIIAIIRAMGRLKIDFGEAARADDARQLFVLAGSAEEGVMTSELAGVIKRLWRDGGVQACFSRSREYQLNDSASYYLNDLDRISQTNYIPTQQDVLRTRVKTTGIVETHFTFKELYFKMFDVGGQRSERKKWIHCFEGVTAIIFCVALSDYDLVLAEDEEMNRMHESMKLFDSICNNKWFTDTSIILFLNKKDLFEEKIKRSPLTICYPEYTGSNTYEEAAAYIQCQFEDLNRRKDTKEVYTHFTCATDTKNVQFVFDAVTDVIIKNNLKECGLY
Sa growth 42C = S. aureus growth inhibition at 42 and 30 °C, primary screen, LtaS inhibitor project, RN4220, two temperatures; AID 720641, 2013; relative growth, % (no concentration beside the values); OD600, 20 h, 42 °C; stronger effect = lower value; hit rate 0.53% among 170,000;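 active means growth at 42 °C up to 50% and 20 or more points under that at 30 °C, or under 10% at both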;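 further: 300 nL library stock went into each well; scaled to the means of positive and negative controls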
HCMV NEC inh = inhibitors of HCMV UL50-UL53 interaction, biochemical, HTRF; inhibition, % (test concentration not listed); normalized percent inhibition; HCMV UL50-UL53 nuclear egress complex (human cytomegalovirus); hit rate 0.15% among 190,000;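 active means both replicates at 50% or more, plus weaker picks with an unusually low signal ratio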;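 further: stock transfer was 100 nL into about 20 µL; 0% = negative control wells and 100% = wells with untagged competitor protein; inactives centre near -12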
Sa growth 42C second temp = recorded beside Sa growth 42C, whose call it bears; relative growth, %; measured here: growth at 30 °C;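 optical density after 20 h as mean of two plates; 100% = untreated growth and lower means inhibition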
* marks the source's active call; other numbers are inactive results; x = not tested or not shown; & = joins results of further samples.

SMILES	GIV Gai3 FP	Sa growth 42C	Sa growth 42C second temp	HCMV NEC inh
CCc1ccnc(NS(=O)(=O)c2ccc3c(c2)OCCCO3)c1	104	100	86	-9
O=C(NC(=S)Nn1cnnc1)c1ccc(F)cc1Cl	x	101	91	-6
O=C(/C=C/c1ccc(S(=O)(=O)N2CCOCC2)cc1)N(CCO)Cc1ccccc1	x	100	86	-33
CS(=O)(=O)c1cccc(C(=O)Nc2nccs2)c1	97	87	77	-24
O=C(Nc1ccccc1)c1c(O)c2ccccc2[nH]c1=O	106	x	x	-30
C=CCn1c(C)cc(C(=O)CSc2nc(O)cc(=O)n2CCC)c1C	x	69	80	-18
CCOc1cc(C2C(C(=O)OCCSCC)=C(C)NC3=C2C(=O)CC(c2ccc(OC)cc2)C3)ccc1OC(C)=O (stereo not drawn)	104	x	x	-12
Cc1ccn2cc(CNC(=O)c3cccc(C(F)(F)F)c3)nc2c1	98	101	79	-16
Cn1cnc(S(=O)(=O)NCc2ccc3c(c2)OCO3)c1	108	99	90	-17
COc1cc(NS(=O)(=O)c2ccc3c(c2)CCN3S(C)(=O)=O)cc(OC)c1	106	97	80	x
CN(CCC#N)C(=O)Cn1nc(Cc2cccnc2)c2ccccc2c1=O	98	98	91	-8
COc1ccc(CN2C(=O)c3oc4ccc(F)cc4c(=O)c3C2c2ccc(O)cc2)cc1 (stereo not drawn)	101	87	97	-22
N#Cc1ccc(C2Nc3cc(Cl)ccc3O2)cc1 (stereo not drawn)	100	85	62	x
COc1cccc(C(=O)/C=C2\NC(=O)CS2)c1	108	101	65	-3
c1cncc(-c2nnc(-c3cccnc3)nn2)c1	x	95	64	29
Cn1ncc2c(NCc3ccc(Cl)cc3)ncnc21	105	113	86	x
O=C1c2ccccc2C(=O)N1CNCC(O)c1ccccc1 (stereo not drawn)	x	110	91	-26
Cc1oc(-c2ccccc2F)nc1CS(=O)(=O)CC(=O)N1CCC(Cc2ccccc2)CC1	100	x	x	-26
CCOc1ccc(CCNC(=O)Cn2c(C)c3cnn(-c4ccccc4)c(=O)c3c2C)cc1	104	110	79	-16
O=C1N(c2ccccc2)C(c2ccc(C(F)(F)F)cc2)C1(F)F (stereo not drawn)	x	86	106	4
c1ccc(-c2noc(NC3CCCCC3)n2)cc1	107	x	x	1
O=C(Cn1ncc2ccsc2c1=O)NCCc1ccccc1	112	111	94	6
CC(NC(=O)CCc1nc2ccccc2[nH]1)c1ccccc1 (stereo not drawn)	101	78	77	x
Cc1ccc(N2CC(C(=O)N3CCC(c4nc(-c5ccccc5)no4)CC3)CC2=O)cc1 (stereo not drawn)	98	x	x	-12
CCOc1ccc(NC(=O)CN2CCN(c3ccc(Cl)cc3)CC2)cc1	104	88	87	x
O=C(CNCc1ccccc1F)Nc1ccc(N2CCCC2)cc1	107	102	86	12
COc1ccc(C2CC(=O)C3=C(C2)NC(C)=C(C#N)C3c2ccc(N(C)C)cc2)cc1 (stereo not drawn)	99	92	80	-9
Cc1ccc2c(c1)C(c1ccccc1)N(C(=O)c1cccc(Cl)c1)CC(=O)N2 (stereo not drawn)	101	x	x	-8
O=C(NC(=S)Nc1ccccc1Cl)c1cnn2c(C(F)(F)F)cc(C(F)(F)F)nc12	100	104	84	-37
O=C(On1c(-c2ccccc2F)nc2ccccc2c1=O)c1ccccc1Cl	98	x	x	-11
Cc1cc(C)cc(NC(=O)Cn2c3ncccc3c(=O)n2-c2ccccc2)c1	109	x	x	-14
S=C(Nc1ccccc1)NC1CC2CCCC(C1)N2C1CC1 (stereo not drawn)	100	82	94	-29
CCN(CC)CCNC(=O)c1ccc2c(c1)N(Cc1ccccc1)C(=O)c1ccccc1S2=O (stereo not drawn)	100	103	75	-4
CCOc1ccc(C2c3c(oc4cc(C)cc(C)c4c3=O)C(=O)N2CC2CCCO2)cc1 (stereo not drawn)	103	x	x	-17
CC(C)C(=O)Oc1ccc2c3c(c(=O)oc2c1)CCC3	98	89	75	-24
CC(C)N(C(=O)c1cc2c(Cl)nc3ccccc3c2s1)C1CCCCC1	100	117	90	-28
Cc1ccc(NC(=O)N2CCC(N(C)C(C)C)CC2)cc1C	97	103	93	x
O=C(/C=C/c1ccccc1)Oc1nc2ccccc2s1	x	105	84	-6
Cc1ccc(S(=O)(=O)N2CCC(C)CC2)cc1	x	78	90	1
N#C/C(=C/c1ccccc1N1CCN(Cc2ccccc2)CC1)S(=O)(=O)c1ccccc1	101	94	99	-2

6 records drawn at random from the list so far, as already listed:
SMILES	GIV Gai3 FP	Sa growth 42C	Sa growth 42C second temp	HCMV NEC inh
CCOc1ccc(NC(=O)CN2CCN(c3ccc(Cl)cc3)CC2)cc1	104	88	87	x
O=C(/C=C/c1ccccc1)Oc1nc2ccccc2s1	x	105	84	-6
CCN(CC)CCNC(=O)c1ccc2c(c1)N(Cc1ccccc1)C(=O)c1ccccc1S2=O (stereo not drawn)	100	103	75	-4
O=C(On1c(-c2ccccc2F)nc2ccccc2c1=O)c1ccccc1Cl	98	x	x	-11
Cc1ccc(NC(=O)N2CCC(N(C)C(C)C)CC2)cc1C	97	103	93	x
c1ccc(-c2noc(NC3CCCCC3)n2)cc1	107	x	x	1

(list continues)
SMILES	GIV Gai3 FP	Sa growth 42C	Sa growth 42C second temp	HCMV NEC inh
CCOc1cc(/C=C2/SC(=O)NC2=O)ccc1Oc1ccc([N+](=O)[O-])cc1[N+](=O)[O-]	106	x	x	-46
CCOC(=O)C1CCC(CN(Cc2cccc(Br)c2)S(=O)(=O)c2ccc(Cl)cc2)CC1 (stereo not drawn)	106	96	93	x
CC(C)N=C(NC#N)NC(C)C	113	98	95	5
O=C(NCC1COc2ccccc2O1)c1n[nH]c(=O)c2ccccc12 (stereo not drawn)	106	91	86	-2
CN(Cc1ccccc1)c1ncnc2c1nc1n2CCCCC1	98	92	87	-32
CCc1n[nH]c(=S)n1/N=C1\C(=O)N(CC(C)C)c2ccccc21	x	87	82	-11
O=C(CC1CCN(C(=O)c2nnc(C(=O)Nc3ccccc3)s2)CC1)NCCc1c[nH]c2ccccc12	103	x	x	-12
CCOC(=O)C1=CC2c3ccc(Br)cc3C=CC2OC1=O (stereo not drawn)	104	108	82	x
CCc1nnc(NC(=O)c2cc(=O)c3cc(F)ccc3o2)s1	95	x	x	-17
COC(=O)C(CCCN1C(=O)c2ccccc2C1=O)(NC(C)=O)c1nnn(C)n1 (stereo not drawn)	97	106	89	-17
O=C(Cn1cnc(S(=O)(=O)N2CCCC2)c1)Nc1cccc(F)c1	105	89	93	x
COc1cc(C2Nc3ccccc3NC3=C2C(=O)CC(c2ccc(OC)c(OC)c2)C3)ccc1O (stereo not drawn)	98	x	x	-32
Cn1nc(-c2ccc(Cl)cc2)cc1NC(=O)Cn1c2ccccc2c(=O)c2ccccc21	106	x	x	-30
Cc1nn(C(C)C(=O)NC2CCC(C)CC2)c(=O)c2c1sc1ccccc12 (stereo not drawn)	102	95	78	-6
CN1CCN(NC(=O)COc2ccc(Br)cc2Cl)CC1	100	116	103	-2
CCOc1ccc(C(=O)Nc2cc(C)ccn2)cc1	x	78	105	2
Cc1ccc2c(c1)C(=O)OC(C(=O)Nc1ncc(Cc3ccc(Cl)cc3)s1)C2 (stereo not drawn)	105	92	89	-36
O=C(Cn1nc(Cc2ccncc2)c2ccccc2c1=O)NCc1ccccc1	95	95	77	x
CC(C)c1ccc(NS(=O)(=O)c2cc(Br)cc3c2N(C(=O)C2CC2)CC3)cc1	102	113	81	-4
CN1CCN(S(=O)(=O)c2ccc3oc(=O)c4ncn(C)c4c3c2)CC1	103	89	96	-1

Entries of single compounds from above. Screens in order: GIV Gai3 FP | Sa growth 42C | Sa growth 42C second temp | HCMV NEC inh
CCOc1ccc(C(=O)Nc2cc(C)ccn2)cc1 is listed with x | 78 | 105 | 2
CN1CCN(NC(=O)COc2ccc(Br)cc2Cl)CC1 is listed with 100 | 116 | 103 | -2

Additional compounds
SMILES	GIV Gai3 FP	Sa growth 42C	Sa growth 42C second temp	HCMV NEC inh
CN1CCN(c2nc3nonc3nc2Nc2ccc(F)cc2)CC1	96	x	x	-40
Cc1cc(C)cc(NC(=O)Nc2cn(C)c(=O)c3ccccc23)c1	106	x	x	1
COc1ccc(C(=O)N(Cc2sccc2C)C2CCS(=O)(=O)C2)cc1Cl (stereo not drawn)	103	107	93	7
CCOc1ccc(S(=O)(=O)N2CCCC2c2ccnn2CC)cc1 (stereo not drawn)	104	x	x	11
CCCCn1cnc2sc3c(c2c1=N)CCCCC3	105	101	92	x
Cc1ccc(-c2noc(-c3cccn4c(=O)c5ccccc5nc34)n2)cc1	120	x	x	-18
Cc1ccc(C(=O)O)cc1NC(=O)CN1CC(=O)Oc2ccccc21	100	80	91	-44
CC1=C(C)CC2C(=O)N(C(Cc3ccccc3)C(=O)O)C(=O)C2C1 (stereo not drawn)	99	121	98	0
O=C(CNC(=O)c1ccc2c(c1)OCO2)NC1CC1	x	79	87	-10
CCOc1ccc(CNC(=O)c2ccc(CS(=O)c3ccccc3)o2)cc1 (stereo not drawn)	104	101	80	x
COc1ccc(-n2nc(C(=O)Nc3cc(Cl)c(OC)cc3OC)c(=O)n(C)c2=O)cc1	102	x	x	-25
Cc1ccc(-c2noc(CCC(=O)NC3CC3)n2)cc1	106	101	94	2
CCOC(=O)N1CCC(NC(=O)c2cc3c(-c4ccc(Cl)cc4)nn(C)c3s2)CC1	107	83	75	-6
O=C(O)c1ccccc1N=Cc1ccccc1Cl	x	94	84	0
O=C(NCC1CCCO1)c1ccccc1-c1nc(-c2ccccc2)no1 (stereo not drawn)	99	x	x	6
Cc1c(NC(=O)CCN2C(=O)/C(=C\c3ccc(Cl)cc3)SC2=S)c(=O)n(-c2ccccc2)n1C	104	x	x	-14
Cc1cc(C(c2nnnn2Cc2ccccc2)N2CCOCC2)c(C)n1-c1ccc2c(c1)OCO2 (stereo not drawn)	109	75	68	8
CCCOc1ccc(C2Nc3ccccc3NC3=C2C(=O)CC(c2ccc(OC)cc2)C3)cc1OC (stereo not drawn)	107	x	x	-14
COc1ccc(Cl)cc1C(=O)Nc1ccc2nc(Nc3cccc(Cl)c3)cc(C)c2c1	105	99	99	x
CCOC(=O)N1CCN(C(=O)CSc2nnc(COc3ccc(Cl)cc3)o2)CC1	102	82	65	x
COc1ccc(OC(C)C(=O)NCc2nc(-c3cccc(C)c3)no2)cc1 (stereo not drawn)	112	105	86	9
CCN1C(=O)c2ccc(-c3ccc(/C=C4/C(=O)N(c5ccc(C(=O)O)cc5)N=C4C)o3)cc2C1=O	106	x	x	-21
O=C1c2cccc3cccc(c23)N1CN1CCc2ccccc2C1	98	99	82	x
NNC(=O)C1C(=O)NCC1c1ccccc1 (stereo not drawn)	105	116	75	-29
O=c1[nH]c(CN2CCC(Cc3ccccc3)CC2)nc2ccccc12	105	92	91	1
NC(=O)C1CCN(c2nc(Nc3ccc(Cl)cc3)nc(Nc3ccc(Cl)cc3)n2)CC1	106	111	87	-5
COc1cc(OC)cc(C(=O)N2CCC(N3CCN(Cc4ccc(F)cc4)C(=O)C3=O)CC2)c1	93	x	x	-22
COC(=O)c1cc(O)cc(C(=O)OC)c1	x	92	88	-22
O=C(CCSCc1cnn(-c2ccccc2)c1-n1cccc1)NCc1ccc2c(c1)OCO2	103	124	91	x
Cc1cccc(N2CCN(C(=O)c3cc4c(=O)oc5ccccc5c4s3)CC2C)c1 (stereo not drawn)	104	84	94	-24
CCOc1ccc(NC(=O)c2ccc(-c3ccccc3)s2)cc1	100	97	90	-7
COCCn1c(O)c(C=NCCCCCc2nc(-c3ccc(C)cc3)no2)c(=O)[nH]c1=S	x	99	99	0
Cc1cc(/C=C/C(=O)NCCc2ccccn2)c(C)n1Cc1ccco1	x	91	92	-21
Cc1ccc(NC(=O)CCc2c(C)nc3cc(-c4ccccc4)nn3c2C)cc1F	106	90	89	-38
Cc1nn(CCCC(=O)NCc2ccccc2Br)c(=O)c2c1sc1ccccc12	101	116	96	-19
N#CCc1nc2ccccc2n1C(=O)CCN1C(=O)c2ccccc2C1=O	x	102	93	5
COc1ccc(NC(=O)c2ccc3c(c2)C(=O)N(Cc2cccnc2)C3=O)cc1	102	108	95	-30
O=C(NCCc1ccccc1)c1cc2ccccn2n1	98	82	86	x
CCn1nc(-c2cccs2)cc1C(=O)NC(C)C	98	78	92	4
CC1CCCCC1NC(=O)CSc1nnc(CN2CCCC2=O)o1 (stereo not drawn)	x	89	97	5
O=C(NC(CO)C(=O)O)c1ccncc1 (stereo not drawn)	106	125	89	-4
CCc1ccc(-n2c(=O)c3cccnc3n2CC(=O)Nc2cc(F)ccc2F)cc1	108&105	105	90	-14
O=c1oc2ccccc2n1Cc1noc(-c2ccc3c(c2)OCO3)n1	121	x	x	-48
O=C(CCCn1c(=O)c2cccn2c2ccccc21)NCCc1ccccc1	103	102	87	x
COc1ccc(CNC(=O)CCc2c(C)nc3nc(CNC(=O)OC(C)(C)C)nn3c2C)cc1	98	100	85	-12

Arranged by the number under GIV Gai3 FP (largest number first): some entries from above.
SMILES	GIV Gai3 FP	Sa growth 42C second temp
O=c1oc2ccccc2n1Cc1noc(-c2ccc3c(c2)OCO3)n1	121	x
O=C(NC(CO)C(=O)O)c1ccncc1 (stereo not drawn)	106	89
O=C(CCCn1c(=O)c2cccn2c2ccccc21)NCCc1ccccc1	103	87
COc1ccc(CNC(=O)CCc2c(C)nc3nc(CNC(=O)OC(C)(C)C)nn3c2C)cc1	98	85

Rows are unselected, and some 0.8% of all compounds hit somewhere here.
